# High-throughput results: PubChem BioAssay, National Center for Advancing Translational Sciences (NCATS)
# AmpC inh no det: blocks E. coli AmpC beta-lactamase in absence of detergent; P00811; AmpC nitrocefin hydrolysis, absorbance 480 nm, no detergent; potencies from a single point are estimates; Potency, µM (titrated, usually from 28.7 µM), for inactives: at the top dose activity change, negative = inhibition; 71,000 compounds, 1.8% hits; AID 585; active = falling curve, for most hits resting on a single point; inconclusive = weak or doubtful change; inactive = flat or rising curve; also: % of control where 0% means no effect; about half of the hits show no inhibition at the top dose; a quarter of the inactives give rising signals
# Target sequence (P00811 whole entry, looked up): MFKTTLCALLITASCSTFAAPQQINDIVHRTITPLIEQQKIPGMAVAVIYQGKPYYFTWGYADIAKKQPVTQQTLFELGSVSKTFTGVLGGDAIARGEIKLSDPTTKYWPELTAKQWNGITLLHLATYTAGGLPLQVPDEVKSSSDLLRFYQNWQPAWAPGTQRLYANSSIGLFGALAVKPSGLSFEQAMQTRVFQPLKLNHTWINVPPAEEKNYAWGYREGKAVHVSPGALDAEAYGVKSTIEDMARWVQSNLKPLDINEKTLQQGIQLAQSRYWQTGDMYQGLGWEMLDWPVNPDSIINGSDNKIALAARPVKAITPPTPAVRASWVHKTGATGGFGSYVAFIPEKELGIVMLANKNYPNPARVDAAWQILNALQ
#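 AmpC in 20 mM phosphate buffer pH 7.0 was preincubated 15 min at room temperature with compounds. Nitrocefin (800 uM stock) was then added and hydrolysis followed at 480 nm every 20 s for 4 min.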
# * hit, by the source's call; ? = inconclusive; [ ] = another dose, or the depositor's remark. Potency is read from the fitted curve at half-maximal effect. An excerpt; the hit share may differ from the screen's.
molecule,AmpC inh no det
O=c1nc2c(-c3ccccc3F)n[nH]n2c2ccccc12,6%
COc1ccccc1C(=O)Nc1c2c(nn1-c1cccc(C)c1C)CS(=O)C2 (stereo not drawn),50%
N[C@@H](Cc1ccccc1)P(=O)(O)O,3%[5.75 µM]
O=C(CSC1=NCCS1)NC1CCCCC1,-2%
CCOC(=O)CCc1c(C)c2ccc(OC(C)C(=O)OCC)c(C)c2oc1=O (stereo not drawn),95%
Cc1[nH]c(=O)[nH]c(=O)c1CSc1nnc([C@@H](NC(=O)OC(C)(C)C)C(C)C)o1,-17%
CN(C)c1ccc(P(=O)(OCc2ccccc2)C(O)c2ccncc2)cc1 (stereo not drawn),38%
O=S1(=O)N=C(Oc2ccccc2)c2ccccc21,-16%
CCCCCOC(=O)C1C2C=CC3(CN(c4ccccc4C)C(=O)C13)O2 (stereo not drawn),38%
NNC(=O)CCSc1ccccc1,-8%[5.75 µM]
Cc1ccc(-n2nc(C)c3c2OC(N)=C(C#N)C3c2cccs2)cc1 (stereo not drawn),0%
Cn1cc(/C=N/n2cnc3sc4c(c3c2=O)CCCC4)c2ccccc21,22%
CC(=O)CCc1ccc(OCCCCn2cncn2)cc1,25%
COC(=O)N1CCC2(CCCN(c3ccc(-c4ccccc4)cc3)C2)CC1,46%
O=C(Nc1cnccn1)c1ccncc1,17%
NC(N)=NCCCC(=O)O,-2%[5.75 µM]
Clc1cccc(-c2nc3nc4ccccc4nc3n2Cc2ccco2)c1,52%
CCN1CCN(C(c2cccs2)C(C)NC(=O)c2ccccc2F)CC1 (stereo not drawn),-5%
CC(=O)c1cccc(NC(=O)COc2ccc(S(=O)(=O)N3CCCCC3)cc2)c1,-3%
CSc1ccccc1-n1nnnc1SCc1ccccc1,1%
N#Cc1sc2nc3c(c(-c4cccnc4)c2c1N)CCC3,12%
COc1cc(C(=O)NC2CCN(Cc3nnnn3Cc3cccs3)CC2)cc(OC)c1OC,76%
COc1ccc(CCN2CC(O)=C(c3nc4ccccc4c(=O)[nH]3)C2=N)cc1OC,78%
CCS(=O)(=O)N1CCCC(C(=O)NCCCN2CCCC2=O)C1 (stereo not drawn),-14%
COC(=O)CCC(=O)Nc1cccc(Br)c1,-2%
N#Cc1cccc(NC(=O)N2CC[C@@]3(CCCN(C(=O)c4cc(C(F)(F)F)cc(C(F)(F)F)c4)C3)C2)c1,81%
Cc1ccc2c(c1)cc(CN(Cc1ccc3c(c1)OCO3)C(=O)c1cnccn1)c1nnnn12,117%
CCn1c(SCC(=O)O)nnc1C1CCCCC1,2%
O=C(Cn1nc(Cc2cccnc2)c2ccccc2c1=O)NCC1CCCO1 (stereo not drawn),-5%
CCOC(=O)CCCCC(=O)c1[nH]c(=O)[nH]c1Cn1ccnc1,-6%
CC1CCN(S(=O)(=O)c2ccc3c(c2)c(=O)c(C(=O)NC2CCCC2)cn3C)CC1,133%
Cn1c(C(=O)NCC2CCCO2)cc2c(=O)n(C)c3ccccc3c21 (stereo not drawn),4µM*[single pt active]
O=c1oc2ccccc2c(O)c1CN1CCCCC1,-8%
CCOC(=O)C1CCCN(C(=O)c2c(-c3ccccc3Cl)noc2C)C1 (stereo not drawn),26%
O=c1[nH]c(=O)n(CCc2ccc(F)cc2)c(O)c1C=NCCCn1ccnc1,-5%
CCOC(=O)C(C)(C)[C@H](O)C(C)C,-3%[5.75 µM]
Cc1ccc(S(=O)(=O)Cc2ccc(C(=O)N3CCCC3)o2)cc1,4µM*[single pt active]
CCOC(=O)c1ccc(CNC(=O)c2n[nH]c(=O)c3ccccc23)o1,6%
COc1cccc(C(=O)NC2=NCCS2)c1,-6%
Cc1noc(C)c1CSc1nnc2cc(C)c3ccccc3n12,11%
CC(C)OC(=O)Nc1ccc(Oc2c(F)c(F)c(F)c(F)c2F)cc1,16µM*[single pt active]
Cc1nc2ccccc2n2c(O)c(CC(=O)O)cc12,-5%
CCn1c(SCCOc2ccc(OC)cc2)nnc1C(CO)NC(=O)c1ccc(OC)cc1 (stereo not drawn),114%
COc1cccc(Cn2c(=O)c(-c3cccs3)nc3cnc(OCc4ccccc4)nc32)c1,5%
O=C1c2ccccc2C(=O)N1CCCCn1c(=O)oc2ccccc21,2%
COc1cccc(CC(C(=O)Nc2cc(C)ccc2C)c2nn[nH]n2)c1OC (stereo not drawn),-2%
COC(=O)CCN(C1CCCCC1)S(=O)(=O)c1ccc(S(=O)(=O)N2CCCCC2)cc1,-5%
N#CC[n+]1cc(-c2ccc(Cl)cc2)n2c1CCC2,-12%
CCCCNC(=O)OC1CCS(=O)(=O)C1 (stereo not drawn),-2%
CCc1ccc(C2CC(c3ccccc3C)n3nc(N)nc3N2)cc1 (stereo not drawn),22%
CCCCC=O,-13%
CNC(=O)[C@@]1(Cc2ccccc2)C=C[C@@H](C)N1C(=O)OC,0%
Cn1c(=O)c2cc(S(=O)(=O)NC(C(=O)N3CCCCCC3)c3ccccc3)ccc2n(C)c1=O (stereo not drawn),6%
COc1ccccc1NC(=O)Cn1cnc2c(cnn2-c2ccc(C)c(C)c2)c1=O,58%
O=C(C1CCN(Cc2ccc(OCc3ccccc3)cc2)CC1)N1CCCC1,48%
CCN(CC)S(=O)(=O)c1ccc(Cl)c(C(=O)NC2CCCC2)c1,-2%
CCSc1nc2ccccc2n1CC(=O)N1CCCCC1,4%
CC1=C(Sc2ccccn2)C(=O)NC(C)(C)C1,-1%
O=CNCC(=O)NC1CCCCCC1,-4%
COc1ccccc1N1CCN(C(=O)c2ccc(S(=O)(=O)N3CCCCCC3)cc2)CC1,125%

# Remaining list, next part.
Molecule	AmpC inh no det
COC(=O)COc1ccc(S(=O)(=O)Nc2ccc(C(N)=O)cc2)cc1	3%
O=C(c1cc(-c2ccncc2)nc2ccc(Br)cc12)N1CCN(c2ccccn2)CC1	123%
Cc1csc(NC(=O)CSc2nnc(-c3ccncc3)n2C)n1	0%
Cc1ccc(S(=O)(=O)Cn2nnnc2C(C(C)C)N2CCN(Cc3ccco3)CC2)cc1 (stereo not drawn)	97%
O=C(CSc1nnc(-c2ccccc2)n1Cc1ccccc1)N1CCCC1	46%
CCOc1ccccc1C1C(C#N)=C(N)Nc2onc(-c3ccccc3)c21 (stereo not drawn)	11%
COc1cccc(N(CC(=O)Nc2cccc(N(C)S(C)(=O)=O)c2)S(C)(=O)=O)c1	7%
COc1ccc(OC)c(NC(=O)CCN2CCCCC2)c1	-8%
CCCN=C(N)NCCC[C@H](N)C(=O)O	1%
O=c1[nH]c2cc(Cl)ccc2c(O)c1-c1cccc(Oc2ccccc2)c1	?
O=C(NCCCN1CCc2ccccc2C1)C1CCN(c2nnc(-n3cccc3)s2)CC1	110%
COc1ccccc1-n1cnnc1SCC(=O)Nc1ncc(Cl)cc1Cl	7%
CCOC(=O)C1C(=O)CC(C)(O)C(C(=O)OCC)C1c1cccc(OC)c1 (stereo not drawn)	22%
Cc1cc(C)n(-c2nc3c(c(=O)[nH]c(=O)n3C)n2C)n1	-13%
Cc1nc2cnc(N(C)C)nc2n(CCc2ccccc2)c1=O	32%
Cc1c2c(nc3c(C(=O)NC4CCCCC4C)cnn13)CCCC2 (stereo not drawn)	88%
COC(=O)[C@@]1(C)C[C@@H]1[C@@H](NC(=O)[C@@]1(C)C[C@@H]1[C@@H](NC(=O)[C@@]1(C)C[C@@H]1[C@@H](NC(=O)[C@@]1(C)C[C@@H]1[C@@H](NC(=O)OCc1ccccc1)c1ccccc1)c1ccccc1)c1ccccc1)c1ccccc1	1%
CCC1CCCCN1C(=O)CSc1nnc(-c2ccc(Cl)cc2)o1 (stereo not drawn)	0%
CCOC(=O)c1cc2sccc2n1Cc1ccc(C#N)cc1	16%
COc1cc2cc(CN(Cc3nnnn3Cc3ccco3)C3CCCCC3)c(=O)[nH]c2cc1OC	108%
Clc1ccc2c(c1)C(N1CCNCC1)=Nc1ccccc1O2	19%[12.8 µM]
Cc1occc1C(=O)NC(C)c1ccc2c(c1)OCO2 (stereo not drawn)	-5%
CCC(C)NC(=O)c1cc(-c2ccc(OC)cc2)on1 (stereo not drawn)	-4%
COc1cc(NC(=O)CSc2nc3ccccc3c(=O)n2C)ccc1NC(=O)c1ccco1	42%
COc1ccccc1CNc1ccnc(-c2ccccc2OC)n1	41%
CCOC(=O)Cc1nnc(NC(=O)C(CC)Sc2nc(C)cc(=O)[nH]2)s1 (stereo not drawn)	-6%
Cc1ccnc(-n2c(C)nc3ccccc3c2=O)c1	-8%
O=C(CSc1nc2c(c(=O)n1-c1ccc(Cl)cc1)SCC2)NCc1ccco1	-13%
Cc1cnc(CNc2cc(-c3ccc4c(c3)OCO4)ncn2)cn1	-4%
Clc1ccc(-c2nnc(SCc3ccon3)o2)c(Cl)c1	14%
O=C(O)[C@@H](O)[C@H](O)C(=O)O	3%[5.75 µM]
O=C1CSC(c2ccccc2)N1CC12CC3CC(CC(O)(C3)C1)C2 (stereo not drawn)	60%
Cc1[nH]c2ccc(-c3nnc(SCC(=O)c4ccc(F)cc4)o3)cc2c1C	66%
CC(=O)c1cc(C#N)c(SCCC(C)C)nc1C	55%
CC1=C(C(=O)N(C)C)C(c2ccc(Cl)c(Cl)c2)NC(=O)N1 (stereo not drawn)	8%
CCOc1ccc(OCC)c(C2C(C#N)=C(N)N(c3cccnc3)C3=C2C(=O)CC(C)(C)C3)c1 (stereo not drawn)	46%
CCC(=O)N1CCN(c2ccc(Cl)cc2NC(=O)c2ccc3c(c2)OCCO3)CC1	101%
CN(C)C(=O)N1CCC(C(=O)NCc2ccc(F)cc2)CC1	-7%
CCCCCOC(=O)c1ccccc1C(=O)OCCCCC	3%
OCCCNc1ncnc2[nH]ncc12	8%[5.75 µM]
Cc1cc(NC(=O)c2cc(-c3cccc(Cl)c3)on2)no1	-22%
CCOC(=O)c1ccc(NC(=O)CSC2=NC(=O)C(CC)C(=O)N2)cc1 (stereo not drawn)	-6%
Cc1noc(C)c1CSc1nnc(-c2ccncc2)n1-c1ccc(Cl)c(Cl)c1	123%
Cc1cc2ccccc2n1CCNC(=O)COc1ccccc1	5%
Cc1nc2nc(C)c(CCC(=O)Nc3ccc4c(c3)OCO4)c(C)n2n1	2%
COc1ccccc1N(CC(=O)NC1CCCC1)C(=O)c1csnn1	13%
O=C(O)c1ccc(C(=O)O)c(C(=O)Nc2ccc3c(c2)Cc2ccccc2-3)c1	-4%[5.75 µM]
CN(C(=O)c1ccc2c(c1)OCO2)C1(C(=O)NC2CCCC2)CCCCC1	23%
CC1CCN(C(=O)CSc2nnc(Cn3c(=O)sc4ccccc43)n2C)CC1	?
COc1ccc(CNC2CCCCC2C)c(OC)c1 (stereo not drawn)	-7%
O=C1CCC(=O)N1OCCCCOc1ccccc1	1%
Cc1cc(=O)[nH]c2c1cnn2Cc1ccccc1	3%
CCOC(=O)N1CCC(N2C(=O)c3ccccc3C2Nc2cc(Cl)c(OC)cc2OC)CC1 (stereo not drawn)	139%
COC(=O)[C@@]1(Cc2ccc(OC)cc2)[C@H]2c3cc(C(=O)N4CCCC4)n(CCCNc4ncc(C(F)(F)F)cc4Cl)c3C[C@H]2CN1C(=O)c1ccccc1	93%
Cc1nc(NCc2ccco2)c2oc3ccccc3c2n1	36%
Cc1nnc(SCC(=O)Nc2ccc3c(c2)OCO3)o1	2%

# More entries
Molecule	AmpC inh no det
CCOC(=O)CSc1nnc(N)s1	-11%
C=CCn1c(SCC(=O)NCc2ccc3c(c2)OCO3)nnc1C1COc2ccccc2O1 (stereo not drawn)	56%
COc1ccccc1NS(=O)(=O)c1ccc(NC(C)=O)cc1	-1%
Cc1cc(C)nc(NC(=O)c2c(-c3c(Cl)cccc3Cl)noc2C)n1	3%
Cc1c(Cl)cc(C(C)(C)C)c(O)c1Cc1c(C)c(Cl)cc(C(C)(C)C)c1O	-18%[5.75 µM]
O=S(=O)(Cc1ccc(Cl)cc1)N1CCCC1	8%
CC(=O)c1cccc(NC(=O)c2cc(C(C)C)on2)c1	-11%
CC(C)(O)c1nnn(-c2ccccc2)c1C(F)(F)F	3%
CCCCC(NC(C)=O)c1nc2ccccc2n1CCC (stereo not drawn)	33%
CCOc1ccccc1Oc1c(C)oc2c(CN3CCN(C)CC3)c(O)ccc2c1=O	36%
COC(=O)CN1CN(c2ccccc2)C2(CCN(Cc3ccc4ccccc4c3)CC2)C1=O	129%
COc1cc(OC)cc(OCC(O)Cn2cnc3cc(C)c(C)cc32)c1 (stereo not drawn)	111%
CCOC(=O)C1CCCN(CCCc2ccccc2)C1 (stereo not drawn)	-3%
O=c1oc(-c2cccs2)nc2c1cnn2-c1ccccc1	4%
CCOc1ccc(-c2noc(CCC(=O)O)n2)cc1	-4%
